Screening results (PubChem BioAssay)
Proteasome disasm – blocks ATP-dependent breakdown of the yeast 26S proteasome; AID 751; anti-FLAG beads, GFP-proteasome disassembly, flow cytometry; inhibition of disassembly, % (concentration not given with the values); 24,000 tested, 0.2% active;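 active means above 40%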;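 further: plate controls were ATP control with full disassembly for no effect and ATP-gamma-S intact proteasomes for full effect; higher percent means more bead fluorescence retained so stronger block of disassembly; stock transfer was 100 nL into about 10 µL; wells with too few beads may also be inconclusive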
VCAM-1 up – boosters of cytokine-driven VCAM-1 levels – cell-based, plate reader, pooled HUVEC, TNFa stimulus (AID 455); augmentation, % at 5 µM; HUVEC TNFa-induced VCAM-1 immunofluorescence, plate reader; numbers were filed only for top-ranked candidate wells; 10,000 tested, 0.2% active;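 active means a compound raising TNF-alpha-driven VCAM-1 surface staining, with its hit status upheld on visual or statistical review; inactive means the rest, including hits rejected on review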;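 further: 0% = TNFa with vehicle and 100% = strongest image-checked hit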
The depositor's hits bear a star; i = inactive; . = no result given. An excerpt, so the mix of outcomes need not match the whole.

Start of the listing, in advance:
Second line of a record: VCAM-1 up, Proteasome disasm
1	O=C1CCc2cc(S(=O)(=O)N3CCN(c4cccc(Cl)c4)CC3)ccc2N1
  ., -0.3
2	CCOC(=O)c1nnn(CC(=O)Nc2cccc(Cl)c2C)c1C(=O)OCC
  ., -1.2

Main list, from the start:
Second line of a record: VCAM-1 up, Proteasome disasm
1	O=C1CCc2cc(S(=O)(=O)N3CCN(c4cccc(Cl)c4)CC3)ccc2N1
  ., -0.3
2	CCOC(=O)c1nnn(CC(=O)Nc2cccc(Cl)c2C)c1C(=O)OCC
  ., -1.2
3	CSc1ccccc1NC(=O)CCn1c(=O)sc2ccccc21
  ., 0.4
4	C1=C(CCNc2ncnc3c2cnn3-c2ccccc2)CCCC1
  i, -2.2
5	CCOC(=O)c1[nH]c(C)c(C(=O)NCCCN2CCOCC2)c1C
  ., -0.1
6	Cc1ncoc1C(=O)Nc1nccs1
  ., 0.6
7	CCOc1ccccc1CN1C(=O)c2ccccc2C1C(=O)NCC1CCCO1 (stereo unspecified)
  i, -0.2
8	CC1(C)NC(C)(C)C(O)(C(N)=O)C1=O (stereo unspecified)
  ., -0.7
9	Clc1ccc(-n2nnnc2Sc2ncnc3sccc23)cc1
  i, 3.2
10	Cc1cc(=O)n2nc(N3CCCC3C(=O)NCCCN3CCCCC3)sc2n1 (stereo unspecified)
  ., -5.2
11	CCN1CCN(C(=O)c2cc3cc4cc(OC)ccc4nc3s2)CC1
  ., 2.3
12	Cc1noc(/C=C/N(C)C)c1S(=O)(=O)NC1CCCCC1
  ., 1.3
13	COC(=O)C1=C(CSCc2ccco2)NC(=O)NC1c1cc(C)ccc1C (stereo unspecified)
  i, 3.5
14	Cc1ccc(C2CC(c3ccco3)n3ncnc3N2)cc1 (stereo unspecified)
  ., -0.4
15	COc1cccc(-c2nc(CS(=O)CC(=O)NC3CC3)c(C)o2)c1 (stereo unspecified)
  ., -0.5

(more compounds)
Second line of a record: VCAM-1 up, Proteasome disasm
16	CCOc1ccc(Cn2nnc(C(=O)Nc3ccc(OC)cc3OC)c2N)cc1
  i, -0.5
17	O=S(=O)(c1ccccc1)c1nc(-c2ccco2)oc1NCCCN1CCOCC1
  i, 3.3
18	Cc1ccc(-c2cc(C(F)F)n3ncc(C(=O)N4CCN(c5ccccn5)CC4)c3n2)cc1
  i, -0.1
19	COc1ccc(S(=O)(=O)NC(CC(=O)NCC2CCCO2)c2ccco2)cc1 (stereo unspecified)
  ., 0.1
20	COc1ccccc1-c1nc(C(F)(F)F)c(OC)o1
  i, -0.8
21	Cc1ccc(N2C(=O)C(Cl)=C(Nc3c(C)n(C)n(-c4ccccc4)c3=O)C2=O)cc1
  ., 0.5
22	CCN(CCNC(=O)Cn1c(=O)sc2ccccc21)c1ccccc1
  ., -2.2
23	Cn1c(Cl)cnc1C1CC(=O)c2cc(Cl)ccc2O1 (stereo unspecified)
  i, -0.1
24	Cc1nonc1NC(=O)c1ccccc1Br
  i, -2.0
25	N#CCCn1nnc2ccccc21
  ., -6.2
26	CCC1Oc2ccc(C)cc2N(CC(=O)NCc2cccc(OC)c2)C1=O (stereo unspecified)
  ., -0.1
27	CC1Cn2c(nnc2-c2cccc(N)c2)S1 (stereo unspecified)
  ., 1.5
28	O=C(Nc1cccc2nsnc12)c1cccs1
  ., 3.1
29	CCOn1c(=O)c(=O)n(OCc2ccccc2)c2ccccc21
  i, 1.3
30	C=CCn1c(SCC(=O)NCC2CCCO2)nnc1C1CCCCC1 (stereo unspecified)
  i, 0.0

Other compounds.
Second line of a record: VCAM-1 up, Proteasome disasm
31	Cc1noc(/C=C/N(C)C)c1S(=O)(=O)N1CCCC(C(=O)NCc2cccs2)C1 (stereo unspecified)
  ., 3.2
32	CC(=O)C1C(c2ccc(F)cc2)NC(=O)NC1(O)C(F)(F)F (stereo unspecified)
  ., -0.1
33	COc1ccc(-c2nc(CS(=O)CC(=O)NCc3ccco3)c(C)o2)cc1OC (stereo unspecified)
  ., -0.2
34	Cc1cc(NC(=O)CCCS(=O)(=O)c2nc(-c3cccs3)cc(C(F)(F)F)n2)no1
  ., -1.1
35	CC(C)(C)n1ncc2c(=O)n(CC(=O)NC3CCCCC3)cnc21
  ., 0.0
36	Cc1nn(-c2ccc(F)cc2)c2c1cc(C#N)c1nc3ccccc3n12
  i, -1.1
37	CCOC(=O)c1c(C)c(C(=O)NCc2ccccn2)c(C)n1CC
  ., 2.1
38	COc1ccc(-n2c(=O)cc(N3CC(C)OC(C)C3)[nH]c2=O)cc1 (stereo unspecified)
  ., 4.6
39	Cc1c(C(=O)O)sc2ncn(C)c(=O)c12
  i, -0.4
40	CC(C)c1[nH]nc2c1C1(CCN(Cc3ccccc3)CC1)C(C#N)=C(N)O2
  ., 4.6
41	CC(C)CCOP(=O)(c1ccc(N(C)C)cc1)C(O)c1ccccc1F (stereo unspecified)
  ., 0.2
42	Cc1cc(Nc2ccc(Br)c(C)c2)n2nc(C)nc2n1
  ., 0.1
43	Cc1nn(C)cc1C1C2=C(CC(C)(C)CC2=O)OC2=C1C(=O)CC(C)(C)C2
  i, -2.7
44	Cc1ccc(N(C(=O)C2CCCC2)C2C=CS(=O)(=O)C2)cc1C (stereo unspecified)
  ., -1.6
45	O=C(c1cccn2c(=O)c3ccccc3nc12)N1CCN(c2ccccn2)CC1
  ., 1.4

Continuation:
Second line of a record: VCAM-1 up, Proteasome disasm
46	COCCNS(=O)(=O)c1ccc(C2CNC(=O)C2)cc1 (stereo unspecified)
  ., -0.1
47	Cc1ccc(Cl)cc1N1CCN(C(=O)COc2ccc(S(=O)(=O)NC(C)C)cc2)CC1
  ., -0.4
48	CCCc1cc(C(=O)NC2CCCCC2)no1
  ., -1.3
49	Cc1csc(NC(=O)CCCSc2nc3ccccc3s2)n1
  i, 2.1
50	CCn1c(C(=O)N2CCc3ccccc3C2)cc2sccc21
  ., 5.0
51	Cc1cc(CN2CCN(CCC#N)CC2)c(O)c(C2(C)CCCCC2)c1
  i, -0.7
52	CC12CCC(C(=O)N3CCCCC3)(CC1=O)C2(C)C (stereo unspecified)
  i, -0.6
53	CC(C)(C)OC(=O)N1CCC(C(=O)N2CCOCC2)CC1
  ., -2.3
54	CCOC(=O)c1cn(CC(=O)Nc2ccc(CC)cc2)nn1
  ., -0.1
55	COc1cccc(CNC(=O)C(CCSC)NS(=O)(=O)c2ccc3c(c2)oc(=O)n3C)c1 (stereo unspecified)
  ., 0.1
56	CN1C(=O)CCC1(O)c1ccccc1 (stereo unspecified)
  i, -0.9
57	Cc1ccc(-c2nc(CS(=O)CC(=O)NCCCN3CC(C)CC(C)C3)c(C)o2)cc1 (stereo unspecified)
  ., 3.8
58	CCc1cc2c(=O)c(-c3nc4ccccc4[nH]3)coc2c(CN2CCC(C)CC2)c1O
  i, -0.3
59	CC(=O)Nc1ccc(S(=O)(=O)n2cnc(C)c2)cc1
  i, 2.1
60	O=C(Nc1ccc2c(c1)OCO2)C(c1ccccc1)N1CCC2(CC1)OCCO2 (stereo unspecified)
  i, -0.2

Ordered by the number under Proteasome disasm (low to high): 4 of the compounds above
Second line of a record: VCAM-1 up, Proteasome disasm
48	CCCc1cc(C(=O)NC2CCCCC2)no1
  ., -1.3
58	CCc1cc2c(=O)c(-c3nc4ccccc4[nH]3)coc2c(CN2CCC(C)CC2)c1O
  i, -0.3
60	O=C(Nc1ccc2c(c1)OCO2)C(c1ccccc1)N1CCC2(CC1)OCCO2 (stereo unspecified)
  i, -0.2
55	COc1cccc(CNC(=O)C(CCSC)NS(=O)(=O)c2ccc3c(c2)oc(=O)n3C)c1 (stereo unspecified)
  ., 0.1

More results follow.
Second line of a record: VCAM-1 up, Proteasome disasm
61	CC(=O)C1=C(O)C(=O)N(CC(=O)O)C1c1ccccc1Cl (stereo unspecified)
  ., -0.4
62	CCN1CCN(C(c2cccs2)C(C)NC(=O)c2cccnc2)CC1 (stereo unspecified)
  ., -0.4
63	CCOC(=O)C1(C)NC(c2ccc(OC)c(OC)c2)C2C(=O)N(CC)C(=O)C21 (stereo unspecified)
  i, -0.8
64	C/C(=C(\C#N)C(=O)NCCCN1CCOCC1)N(C)C
  i, -2.9
65	C=CCc1cccc2cc(C(=O)NCc3cccnc3)c(=O)oc12
  i, 2.2
66	COc1ccc(OC)c(C(=O)CSc2nc3ncccc3[nH]2)c1
  i, -0.4
67	CC(C)c1cc(C(=O)Nc2cccnc2)no1
  i, 4.4
68	COc1ccc(S(=O)(=O)N(C)C2CCN(C)CC2)cc1
  i, -0.2
69	COc1cccc(N2C(=O)C3ON(c4ccccc4)C(c4cccs4)C3C2=O)c1 (stereo unspecified)
  ., 1.6
70	CC(C(=O)NCc1ccco1)n1nc(-c2ccccc2)c2cc(Cl)ccc21 (stereo unspecified)
  ., 1.0
71	CCSc1nnc(NC(=O)c2ccc(C)o2)s1
  i, 0.8
72	COc1ccc(-n2ccnc2SCC(=O)Nc2ccccc2)cc1
  ., 0.6
73	COC(=O)c1cc(O)c(OCc2ccccc2)c(O)c1
  i, -63
74	CC1CCN(c2nc(-c3ccccc3)c(C#N)c(=O)[nH]2)CC1
  ., -0.2
75	CC(C)CCCNc1nc(N2CCOCC2)nc(N2CCOCC2)n1
  ., -0.1

(further entries)
Second line of a record: VCAM-1 up, Proteasome disasm
76	CN(CC(=O)NCCN1CCN(Cc2ccccc2)CC1)S(=O)(=O)c1cccc2nsnc12
  ., 0.2
77	CCOc1ccc(C2C(C#N)=C(N)Oc3cc(C)n(CCN(C)C)c(=O)c32)cc1OCC (stereo unspecified)
  i, -0.1
78	O=C(NCCCNC1CCCCC1)c1ccc(/C=N/O)nc1
  i, 0.7
79	COCCNC(=O)Cn1ncc2ccsc2c1=O
  ., -5.8
80	Cc1ccccc1C(=O)Nc1c(C(=O)N2CCCC2)cnn1-c1ccccc1
  i, -0.1
81	CCOC(=O)N1CCN(C(=O)c2csc3c2CCCCC3)CC1
  i, -0.7
82	CC(=O)NCCc1csc(-c2ccccc2)n1
  ., 2.3
83	CCOc1nc(C#N)nc(N2CCCCC2)n1
  ., -0.3
84	CCN(Cc1cc2ccccc2[nH]c1=O)S(=O)(=O)c1ccccc1
  i, -0.1
85	O=C(Nc1ccccc1)c1cccnc1N1CCOCC1
  i, 0.5
86	CC1CCN(CCCNC(=O)CN2CCN(Cc3ccc(Cl)cc3)C2=O)CC1
  ., -1.0
87	O=S(=O)(c1ccc2ccccc2c1)N1CCCCC1
  i, -3.5
88	Oc1ccc(N2CCN(C(c3ccncc3)c3nnnn3C3CCCC3)CC2)cc1 (stereo unspecified)
  i, -0.6
89	COc1cc2c(cc1OC)C(C(=O)N1CCOCC1)C(c1cccs1)N(C)C2=O (stereo unspecified)
  ., -1.1
90	Cc1ccccc1-c1noc(N)c1C#N
  i, 3.1

Remaining list, next part:
Second line of a record: VCAM-1 up, Proteasome disasm
91	OC1C=CSc2nc3ccccc3n21 (stereo unspecified)
  i, -0.8
92	Cn1c(C(=O)N2CCc3ccccc3C2)cc2c(=O)n3ccccc3nc21
  ., -0.2
93	COCCn1c(COc2ccc(Cl)cc2)nnc1SCC(N)=O
  i, 0.5
94	CCN(CC)S(=O)(=O)c1ccc2c(c1)c(=O)c(C(=O)NCCOC)cn2C
  i, -1.5
95	Cc1cccc(NC(=O)C2CCN(S(=O)(=O)c3cccs3)CC2)n1
  ., -0.4
96	c1ccc(CN2C3=NCCCN3c3ccccc32)cc1
  i, 1.5
97	COc1cccc(C2=NOC(C(=O)NCc3ccccc3)C2)c1 (stereo unspecified)
  ., 0.4
98	COc1ccc(C)cc1NC(=O)C1CCCN1S(=O)(=O)c1ccc2c(c1)CCC(=O)N2 (stereo unspecified)
  ., 1.0
99	COc1cc(C(=O)Oc2c(CN3CCOCC3)cc(Cl)c3cccnc23)cc(OC)c1OC
  ., -0.2
100	O=C(Nc1ccccc1C(=O)N1CCOCC1)c1ccncc1
  i, -0.7
101	CN(C(=O)c1ccncc1)C1CC(C)(C)N(O)C(C)(C)C1
  i, 0.4
102	COc1ccccc1Nc1nc(N)nc(CN2CCOCC2)n1
  ., 2.1
103	NC(=O)c1cccc(S(=O)(=O)N2CC(c3ccccc3)CC2=O)c1 (stereo unspecified)
  ., -0.6
104	Cc1occc1C(=O)Nc1nn[nH]n1
  ., 1.1
105	COc1cccc(NC(=O)n2nc(N)cc2-c2ccc(Cl)cc2)c1
  ., -1.9

Further results follow.
Second line of a record: VCAM-1 up, Proteasome disasm
106	Cc1nc(C)n(C(C)CC(=O)O)n1 (stereo unspecified)
  i, -3.7
107	Cc1[nH]c2ccc(F)cc2c(=O)c1SC(F)(F)C(F)F
  ., 1.2
108	O=C(NC1CCCCC1)c1ccc(Cn2cc(Br)cn2)o1
  ., 3.1
109	Cn1c(Cn2c(=O)sc3ccccc32)nnc1SCC(=O)Nc1cccc(Cl)c1
  ., -1.9
110	CC(=O)Nc1c(Cl)n(C(C)=O)c2ccccc12
  i, 1.4
111	COc1cccc(C(=O)n2cnnc2N)c1OC
  i, 2.3
112	Cc1ccc2c(CNCc3ccco3)cc(=O)oc2c1
  i, 1.5
113	O=C(Nc1ccc(F)cc1F)N1CCN(C/C=C/c2ccccc2)CC1
  ., 0.0
114	COC(=O)Cc1c(C)nc2nc(-c3ccco3)[nH]n2c1=O
  i, 0.8
115	Cn1c(Cn2c(=O)sc3ccccc32)nnc1SCC(=O)Nc1cccc(F)c1
  ., -3.1
116	Cc1coc(NC(=O)CSc2nc(-c3ccncc3)cc(C(F)(F)F)c2C#N)n1
  i, 1.0
117	O=C(NCc1ccccn1)C1CCN(S(=O)(=O)N2CCCCC2)CC1
  ., 0.1
118	Cn1c(=O)cc(OCCCC(=O)Nc2ccc3c(c2)OCCO3)c2ccccc21
  i, -2.4
119	CCCCNC(=O)c1c[nH]c2ccc(S(=O)(=O)Nc3ccc(OCC)cc3)cc2c1=O
  ., 0.5
120	COC(=O)c1cn(-c2ccccc2)nc1C(=O)OC
  i, -0.1
121	CCOc1ccc(-c2nc(=S)[nH][nH]2)cc1
  ., 2.0
122	O=C(NCCCn1ccnc1)Nc1ccc(Cl)cc1
  ., 1.8
